Source: PubChem BioAssay
PINK1 expr mod = A Quantitative High throughput Screen to Identify Chemical Modulators of PINK1 Expression | PINK1 immunofluorescence, high-content cytometry, 24 h | Potency, µM (highest dose often 76.6 µM), for the others: at the top dose activation (PINK1 increase), usual class: activators | 410,000 compounds, 0.2% hits; active = well fitted activation curve with a large enough effect; inconclusive = small, poorly fitted or top-dose-only effect; inactive = flat fitted curve, though single readings scatter; cell line not stated here;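 further: % of control where 0% means no effect; nearly all actives have a fitted effect of over 65% in size; a mitochondrial uncoupler was the plate control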
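PINK1 protein, normally rapidly degraded, was detected by immunofluorescence after 24 hour compound treatment of a stable cell line. Titration data (5 concentrations) came from laser-scanning cytometry, with CCCP-treated wells as controls.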
ClpP mod = qHTS Assay for Activators of ClpP. ATP-dependent Clp protease proteolytic subunit (Bacillus subtilis (strain 168)), P80244. purified B. subtilis ClpP, FRET peptide cleavage, 20 min. Potency, µM (titrated, usually from 57.5 µM), for inactives: at the highest dose activity change, negative = active. 340,000 compounds, 1.9% hits; active = well fitted falling curve with a large enough effect; inconclusive = small, poorly fitted or top-dose-only effect; inactive = no such curve, though single readings can be large or run the other way; further: the source files actives as falling curves though it sought activators and does not explain the sign; nearly all actives have a fitted effect of over 65% in size; many hits overshoot -100%
Target sequence (P80244 whole entry, looked up): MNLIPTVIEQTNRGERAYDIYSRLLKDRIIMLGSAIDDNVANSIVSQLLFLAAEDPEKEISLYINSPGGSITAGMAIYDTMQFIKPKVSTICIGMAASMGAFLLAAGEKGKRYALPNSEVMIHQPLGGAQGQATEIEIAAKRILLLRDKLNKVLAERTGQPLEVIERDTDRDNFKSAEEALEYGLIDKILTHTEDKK
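Buffer: 100 mM Tris/HCl pH8, 100 mM KCl, 0.05% low protease BSA, 2.5% glycerol, 0.01% Tween-20. ClpP 10 microg/mL final; 20 min RT; delta FRET normalized to ADEP and DMSO controls.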
The depositor's hits bear a star; ? = inconclusive. Potency means the concentration at half of the fitted maximal effect. A portion of the library, so the mix of outcomes need not match the whole.

| SMILES | PINK1 expr mod | ClpP mod |
| --- | --- | --- |
| COc1ccc(C(=O)c2sc3nc4c(c(C(F)(F)F)c3c2N)CN(C(C)=O)CC4)cc1OC | -2.0% | 1.5% |
| CCC(Sc1nc(-c2ccccc2)[nH]c1S(=O)(=O)c1ccc(C)cc1)C(=O)O (stereo not given) | -0.8% | -0.7% |
| Cc1ccc2c(=O)cc(C(=O)Nc3ccc(S(=O)(=O)N4CCCCCC4)cc3)oc2c1C | 6.4% | -0.4% |
| O=C(c1ccc2c(c1)N(Cc1ccc(Cl)cc1)C(=O)c1ccccc1S2=O)N1CCC(Cc2ccccc2)CC1 (stereo not given) | 1.6% | -6.5% |
| Cn1c2c(c(=O)n(C)c1=O)C(c1cccc(O)c1)CC(=O)N2 (stereo not given) | 0.6% | -6.3% |
| CN(Cc1ccccc1)C(=O)[C@@H]1CCCN1C(=O)[C@@H]1CCCN1C(=O)c1ccc(Cl)cc1 | 0.6% | 0.2% |
| COc1ccc(Cn2c(SCC(=O)Nc3ccc(OC)cc3)nc3ccccc32)cc1 | 1.2% | -6.4% |
| CCc1cccc(C)c1Nc1c(-c2cccs2)nc2ncccn12 | 2.2% | 1.7% |
| C=Cc1ccc(Cn2c(=O)n(-c3cccc(C)c3)c(=O)c3c2c2cc(C)ccc2n3C)cc1 | 2.2% | 4.4% |
| O=C(Nc1ccc(Cl)cc1)N1CCC(CN2CCCCCC2)CC1 | 0.8% | -4.6% |
| COc1cccc(Cc2nc3ccccc3nc2SCC(=O)N2CCN(c3ccccc3)CC2)c1 | 0.6% | -1.1% |
| CN1CCN(C(=O)c2ccc3c(c2)N(Cc2ccc(C(F)(F)F)cc2)C(=O)c2ccccc2S3)CC1 | -0.3% | -4.4% |
| CCN(C(=O)CSc1nnc(-c2cc3occc3n2C)n1-c1ccccc1C)c1ccccc1 | -0.9% | -5.2% |
| COc1ccc(-n2c(SCC(=O)Nc3cc(C)cc(C)c3)nc3c(oc4ccccc43)c2=O)cc1 | 0.7% | -20% |
| Cc1ccc2nc(CS)[nH]c2c1 | 3.2% | 9.8% |
| CCOC(=O)[C@]12CCC=C1N(Cc1ccc(Cl)cc1Cl)C(=O)[C@H](CC(=O)NCCC(C)C)C2 | 13% | 1.3% |
| CCOC(=O)C1CCN(c2ncnc3c2c(-c2ccccc2)cn3-c2ccc(C)c(Cl)c2)CC1 | -0.2% | -13% |
| CCCCNC(=O)C1c2ccccc2OCC(=O)N1Cc1cccnc1 (stereo not given) | 0.9% | -2.6% |
| Cc1nn(CC(=O)NCc2cccc(Br)c2)c(=O)c2c1sc1ccccc12 | 0.0% | -5.3% |
| Cc1ccc(OCC(=O)N(Cc2sccc2C)C2CCS(=O)(=O)C2)cc1 (stereo not given) | -0.5% | 2.1% |
| COc1cc2oc(=O)c(CC(=O)N3CCCCC3)c(C)c2cc1OC | -0.2% | 4.4% |
| Cc1cccc(NC(=O)CSc2nc3ccc(NC(=O)c4ccccc4)cc3s2)c1 | 3.6% | ? |
| CC(=O)c1ccc(NC(=O)CN(C)S(=O)(=O)c2cnc[nH]2)cc1 | 0.0% | -0.9% |
| O=C(Nc1ccc(F)c(Cl)c1)N1CCN(C(=O)c2nsc3ccccc23)CC1 | 1.0% | 3.6% |
| Cc1ccc2[nH]c(=O)c(CN(Cc3ccco3)Cc3nnnn3Cc3ccccc3)cc2c1 | 3.8% | ? |
| COc1ccc(C(=O)N(Cc2ccco2)Cc2ccco2)cc1 | 0.9% | 1.2% |
| COC(=O)c1cc2sc(C)cc2n1Cc1ccc(Br)cc1F | -0.5% | ? |
| COCCCNC(=O)C1CCN(Cc2cc3ccccc3n2Cc2ccccc2C)CC1 | 2.2% | -6.1% |
| Cc1ccccc1C(=O)NC1(C(F)(F)F)N=C(c2ccccc2)N(Cc2ccccc2)C1=O (stereo not given) | 2.3% | -1.7% |
| COc1ccc(-c2noc(CSc3nnc(C)n3-c3ccc(C)cc3)n2)cc1 | 1.5% | -0.7% |

6 entries picked at random from the list so far:
| SMILES | PINK1 expr mod | ClpP mod |
| --- | --- | --- |
| Cn1c2c(c(=O)n(C)c1=O)C(c1cccc(O)c1)CC(=O)N2 (stereo not given) | 0.6% | -6.3% |
| CCC(Sc1nc(-c2ccccc2)[nH]c1S(=O)(=O)c1ccc(C)cc1)C(=O)O (stereo not given) | -0.8% | -0.7% |
| CCCCNC(=O)C1c2ccccc2OCC(=O)N1Cc1cccnc1 (stereo not given) | 0.9% | -2.6% |
| COc1ccc(-n2c(SCC(=O)Nc3cc(C)cc(C)c3)nc3c(oc4ccccc43)c2=O)cc1 | 0.7% | -20% |
| CCOC(=O)[C@]12CCC=C1N(Cc1ccc(Cl)cc1Cl)C(=O)[C@H](CC(=O)NCCC(C)C)C2 | 13% | 1.3% |
| O=C(Nc1ccc(F)c(Cl)c1)N1CCN(C(=O)c2nsc3ccccc23)CC1 | 1.0% | 3.6% |

Following part
| SMILES | PINK1 expr mod | ClpP mod |
| --- | --- | --- |
| CCN(C(=O)c1noc2c1COc1ccc(C)cc1-2)c1cccc(C)c1 | 0.7% | -7.0% |
| COc1ccc(N2CCN(CCCNC(=O)C3COc4ccc(OC)cc4C3)CC2)cc1 (stereo not given) | 0.1% | -15% |
| COc1ccccc1NC(=O)c1cc(S(=O)(=O)NCCC2=CCCCC2)ccc1F | 2.7% | -5.5% |
| COc1cccc(-n2c(=O)c3c(C)c(C)sc3n(CC(=O)NCc3ccc(C)cc3)c2=O)c1 | 2.1% | -0.9% |
| CCc1ccc(S(=O)(=O)c2nnn3c2nc(N(C)Cc2ccccc2)c2cc(Cl)ccc23)cc1 | 0.5% | ? |
| COc1ccc(CNC(=O)Cc2ccc(NC(=O)N3CCCCc4ccccc43)cc2)cc1 | 0.5% | -1.8% |
| Cc1cc(NC(=O)Cn2c(=O)oc3cc(S(=O)(=O)N4CCCC4)ccc32)ccc1Br | 2.9% | -1.1% |
| COc1cc(OC)cc(C(=O)Nc2cc(-c3nc4ccccc4s3)ccc2OC)c1 | -1.4% | -4.1% |
| Cc1cccc(C(=O)N2CCc3cc(CNS(=O)(=O)c4cccs4)ccc32)c1 | 0.9% | 1.1% |
| Cc1ccccc1NC(=O)c1sc2nc(-c3ccncc3)ccc2c1N | 4.1% | 0.5% |
| Cc1ccc(NC(=O)c2c(C)oc3ccc(O)c(CN4CCOCC4)c23)cc1 | 0.5% | -0.7% |
| CCC1CN(C(=O)Nc2cc(C)ccc2OC)c2cc(Cl)ccc2O1 (stereo not given) | -0.8% | -1.5% |
| CCOc1ccc(NC(=O)c2sc3nc(-c4ccc(OC)cc4)cn3c2C)cc1 | 0.4% | -1.6% |
| COC(=O)c1ccc(NC(=O)C2(S(=O)(=O)c3ccc(C)cc3)CC2)cc1 | 5.9% | -1.1% |
| COc1ccc(-c2nnn3c2nc(NCc2ccc(C)cc2)c2ccccc23)cc1 | -0.5% | -1.5% |
| CCOc1ccc(NC(=O)C(C)n2c(=O)cc(C)c3c(C)nn(-c4ccccc4)c32)cc1 (stereo not given) | -0.1% | -0.7% |
| COc1ccc(NC(=O)CSc2oc(-c3ccc(F)cc3)nc2S(=O)(=O)c2ccc(C)cc2)c(OC)c1 | -1.3% | 1.2% |
| CCC(C(=O)Nc1cc(C(F)(F)F)ccc1Cl)n1nc(C)c2sc3ccccc3c2c1=O (stereo not given) | -0.2% | -0.2% |
| COc1cc2c(cc1OC)C(COc1ccc(C(C)C)cc1)N(C(=O)COc1ccccc1)CC2 (stereo not given) | -4.6% | -2.0% |
| CCSc1nc(-c2ccccc2)nc2c1Cc1c(CO)cnc(C)c1O2 | 0.5% | 2.2% |
| Cc1ccc(C)c(NC(=O)Cn2cc(S(=O)(=O)Cc3cccc(Cl)c3)c3ccccc32)c1 | ? | -0.7% |
| O=C(Nc1cc(Cl)ccc1Cl)c1ccc2c(c1)N(Cc1cccc(Cl)c1)C(=O)c1ccccc1S2=O (stereo not given) | 0.6% | -13% |
| CCCCSCCCNC(=O)CN1C(=O)c2cccnc2Oc2ccc(Cl)cc21 | -0.5% | -0.9% |
| COc1cccc(NC(=O)CSc2cc(C)c3ccccc3n2)c1 | 3.0% | -0.1% |
| COc1ccc(NC(=O)c2c(C)oc3ccc(O)c(CN4CCC(C)CC4)c23)cc1Cl | 2.6% | -1.3% |
| CCn1cc(S(=O)(=O)c2cccc(C)c2)c(=O)c2cc(F)c(N3CCCCC3C)cc21 (stereo not given) | ? | -18% |
| CCC1CN(C(=O)N2CCC(C(=O)NCCc3ccc(Cl)cc3)CC2)c2ccccc2O1 (stereo not given) | 1.5% | -1.1% |
| CCCCNC(=O)C1CCC(Cn2c(=O)c3sccc3n(CC(=O)Nc3ccccc3)c2=O)CC1 (stereo not given) | -0.7% | -0.9% |
| Cc1cc(OCCn2c(CCNC(=O)C3CCCCC3)nc3ccccc32)ccc1Cl | 0.4% | -0.3% |
| Cc1ccc(NC(=O)CC(C)S(=O)(=O)c2ccc3c(c2)NC(=O)CO3)c(C)c1 (stereo not given) | 2.6% | -0.8% |

Carrying on:
| SMILES | PINK1 expr mod | ClpP mod |
| --- | --- | --- |
| Cc1nn(CCCC(=O)Nc2cc(C(F)(F)F)ccc2Cl)c(=O)c2c1sc1ccccc12 | 2.8% | -0.2% |
| O=c1[nH]c(=O)n(C2CCCCC2)c(O)c1C1=Nc2ccccc2SC(c2ccccc2)C1 (stereo not given) | 1.0% | -2.2% |
| COc1ccc(C2C(=O)N(C3CCCCCC3)CC(=O)N2CCC2=CCCCC2)cc1 (stereo not given) | 0.1% | 0.8% |
| Cc1ccc(NC(=O)c2c(NC(=O)Cc3ccccc3)sc3c2CCC3)cc1 | 0.8% | -2.9% |
| Cc1ccccc1OCC(=O)Nc1ccc2[nH]c(=O)sc2c1 | -1.0% | -5.5% |
| Cc1oc2ncn(C)c(=O)c2c1C(=O)N1CCN(c2ccccc2F)CC1 | 4.6% | -1.7% |
| COC(=O)C1CCN(CC(=O)Nc2cc(C)c3c(=O)oc4ccccc4c3n2)CC1 | 2.1% | -14% |
| CCCCNc1c(CC(C)C)nc2nc(C)cc(C)n12 | 0.2% | -5.5% |
| CCC1CCCCN1Cc1cn2c(-c3ccc(Br)cc3)nnc2s1 (stereo not given) | -4.7% | -1.4% |
| O=C(NCc1ccccc1F)c1sc2ncccc2c1-n1cccc1 | -0.8% | -4.0% |
| Cc1ccc(-c2cc(C(F)(F)F)n3nc(-c4cccc(Br)c4)cc3n2)cc1 | -1.3% | -24% |
| Cc1ccc(Cl)cc1NC(=O)Cn1c(=O)n(C(C)C)c(=O)c2oc3ccccc3c21 | -0.5% | -19% |
| O=C(CSc1ncc(CO)n1Cc1ccc(Cl)cc1)NCc1ccc(F)cc1 | -4.9% | -1.3% |
| CCOc1ccc(CCNC(=O)c2cn(C)c3ccc(S(=O)(=O)N4CCCCC4)cc3c2=O)cc1OCC | 7.4% | 0.1% |
| CCC(C)NC(=O)c1sc2nc(C)c(C(=O)Nc3ccc(C)cc3C)c(-c3ccccc3Cl)c2c1N (stereo not given) | 1.9% | -14% |
| CC1CCC(N2CC(=O)N(C3CCCC3)C(c3ccc(Cl)cc3)C2=O)CC1 (stereo not given) | 0.7% | -1.4% |
| CC(=O)N1CCc2cc(S(=O)(=O)NC(C(=O)Nc3ccc(C)cc3C)C(C)C)ccc21 (stereo not given) | 2.4% | -1.2% |
| O=C(Nc1ccc2nc(SCCOc3ccccc3)sc2c1)c1ccc2c(c1)OCO2 | 5.9% | 2.9% |
| Cc1ccc(C2CCN(C(=O)c3cnn(-c4ccc(C)c(C)c4)c3C3CCN(C(=O)OC(C)(C)C)CC3)C2)cc1 (stereo not given) | 0.4% | 1.6% |
| COc1ccccc1CNc1ncnc2c1nc1n2CCCC1 | 1.4% | -1.0% |
| O=C(NCCSc1c(-c2ccc(F)cc2)[nH]c2ccccc12)c1ccc(S(=O)(=O)N2CCOCC2)cc1 | 0.7% | -2.6% |
| CCS(=O)(=O)N1CC(=O)N(c2cccc(C)c2C)C(C)(C(=O)NC2CCCCC2)C1 (stereo not given) | 0.7% | 1.4% |
| OC[C@@H]1CCC[C@@H](n2cnc3c(=S)nc[nH]c32)O1 | 1.0% | -2.7% |
| COc1ccc(CNC(=O)CS(=O)(=O)c2cccc3nsnc23)cc1 | -2.0% | -2.5% |
| CCn1c(=O)n(-c2ccc(F)c(Cl)c2)c(=O)c2sc3ccccc3c21 | 3.8% | 4.2% |
| CCOc1ccc(CNS(=O)(=O)c2ccc(-c3coc(C)n3)cc2)cc1 | -1.2% | -4.2% |
| COc1ccc(NC(=O)NC2COc3ccccc3C2)cc1Cl (stereo not given) | 1.5% | -0.3% |
| CCOc1ccc(NC(=O)c2ccc(F)c(S(=O)(=O)NCc3ccc4c(c3)OCO4)c2)cc1 | 0.1% | -0.5% |
| Cc1ccc(C(=O)NCCc2ccc(Cl)cc2)cc1-n1c(C)nc2cccnc21 | -1.1% | ? |
| CC(C)NC(=O)C1CCN(C(=O)c2cnn(-c3ccccc3)c2-n2cccc2)CC1 | 0.1% | -0.8% |
| COCCNC(=O)CSc1nc2cc3c(cc2c(=O)n1CCCC(=O)NCc1ccc2c(c1)OCO2)OCO3 | 0.9% | -1.7% |
| O=C(CSc1nc(-c2ccccc2)[nH]c1-c1ccccc1)Nc1ccc2c(c1)OCO2 | 24% | -14% |
| O=C(Nc1cc2ccc(O)cc2oc1=O)c1ccccc1 | -1.0% | -5.6% |
